AID504770 – E. coli YBA685 growth inhibition, screen for V. cholerae RctB inhibitors; E. coli YBA685 rctB-dependent plasmid, OD600 growth, 3 h; stronger effect = lower value; z-score (test concentration not listed); 130,000 compounds, 0.27% hits;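 active means z-score under -2 on both plates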;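 further: wells of about 30 µL received 100 nL stock; score is relative to mean and SD of the test wells; the first replicate is given; strong numbers were not always called active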
CapD inh – blocks the Bacillus anthracis CapD enzyme | purified CapD enzyme, fluorescence intensity read-out; stronger effect = lower value; some hits fall short of the stated cut | z-score (concentration not given with the values) | 140,000 compounds, 0.23% hits;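 active means z-score under -4 in either of two replicates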;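 further: stock transfer was 100 nL into about 40 µL; score is relative to mean and spread of the plate; one replicate is shown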
Active calls of the source: *; x = no result given.

Start of the data: the first 5 entries (preview)
Screens in order: AID504770 | CapD inh
> CC1CCc2c(sc(NC(=O)c3ccc(N4C(=O)C5C6C=CC(C6)C5C4=O)cc3)c2C#N)C1 (centres undefined)
    x | 7.7
> CN(Cc1ccccc1)C(=O)COCc1cc(-c2ccco2)on1
    -0.1 | 1.4
> O=P(O)(CCc1ccccn1)CN1CCOCC1
    0.55 | 0.075
> CC1CCC2(CC1)NC(=O)N(/N=C/c1ccccc1)C2=O (centres undefined)
    0 | x
> Cc1ccc(CNC(=S)NC2CCN(C)CC2)cc1
    -0.2 | 0.65

The list itself, repeating the preview:
Screens in order: AID504770 | CapD inh
> CC1CCc2c(sc(NC(=O)c3ccc(N4C(=O)C5C6C=CC(C6)C5C4=O)cc3)c2C#N)C1 (centres undefined)
    x | 7.7
> CN(Cc1ccccc1)C(=O)COCc1cc(-c2ccco2)on1
    -0.1 | 1.4
> O=P(O)(CCc1ccccn1)CN1CCOCC1
    0.55 | 0.075
> CC1CCC2(CC1)NC(=O)N(/N=C/c1ccccc1)C2=O (centres undefined)
    0 | x
> Cc1ccc(CNC(=S)NC2CCN(C)CC2)cc1
    -0.2 | 0.65
> CCc1ccc(NC(=O)c2sc3ncnc(N4CCN(C)CC4)c3c2C)cc1
    -0.2 | -0.14
> O=C(CSc1ccc(-c2cccnc2)nn1)c1ccc(F)cc1
    0.7 | -0.28
> Cc1ccc2nsnc2c1S(=O)(=O)NC(C)(C)C
    0.25 | x
> COc1cc(NC(=O)C2CCN(c3ncccn3)CC2)cc(OC)c1
    0.85 | 10
> O=C(O)C(CSc1ncccn1)CSc1ncccn1
    -1 | -0.62
> Cn1c2ccccc2c2cc(C(=O)NNC(=O)c3cccc(Cl)c3)sc21
    x | 1.2
> COc1cc2c(C(=O)O)c(C)n(C)c2cc1Br
    0.75 | -0.57
> O=C(CCc1ccccc1)N1CCN(c2ccc(N3CCCCCC3)nn2)CC1
    0.05 | x
> NC(=O)c1noc(C(=O)N(c2ccc(OC(F)(F)F)cc2)C(C(=O)NC2CCCC2)c2c[nH]c3ccccc23)c1N (centres undefined)
    2.4 | x
> CN=c1scc(C)n1/N=C/c1ccc2c(c1)OCO2
    0.15 | x
> O=CN1CCN(C(=O)C2CCN(Cc3cc4cccc5c4n(c3=O)CCC5)CC2)CC1
    x | 8.9
> CCc1ccc(-c2cc(C(=O)N3CCN(C)CC3)c3ccccc3n2)cc1
    x | 33
> O=C(OCCCN1C(=O)c2ccccc2C1=O)c1ccc(Cl)cc1Cl
    -0.25 | -0.085
> O=C(NC1CCCCC1O)c1cccc(Cl)c1 (centres undefined)
    -0.65 | x
> COC(=O)c1c(F)c(F)c(NCCO)c(F)c1F
    -0.2 | 0.69
> Cc1nn(-c2ccc(N3CCCC3)nn2)c(C)c1CCC(=O)NCc1ccc2c(c1)OCO2
    -0.65 | -0.14
> CCCCS(=O)(=O)c1sc2nc(C)cc(C)c2c1N
    0.2 | 12
> CCN(CC)CC(=O)Nc1ccc(Oc2ccc(NC(=O)CN(CC)CC)cc2)cc1
    0.5 | 0.09
> CNC(=O)c1cc(C)c(-c2ccccc2)s1
    -1 | 16
> COC(=O)C1=C(C)NC(=O)C1(NS(=O)(=O)c1ccc(C)cc1)C(F)(F)F (centres undefined)
    -0.1 | 0.36
> O=C(Cn1cc(C(=O)c2ccco2)c2ccccc21)NC1CCCC1
    -0.15 | 0.13
> N#Cc1c(NC(=O)CSc2ncnc3sc4c(c23)CCC4)sc2c1CCC2
    x | 0.35
> Cc1cccc(C)c1NC(=O)CN1CCN(CCCC(c2ccc(F)cc2)c2ccc(F)cc2)CC1
    x | -0.64
> CCOC(=O)c1cc(S(=O)(=O)N2CCCC2)cn1C
    0.35 | 7.2
> CCN(CC)CCNc1c2c(c(C#N)c3nc4ccccc4n13)CCCC2
    0.5 | -0.58
> CSc1cccc(NC(=S)NCc2cccnc2)c1
    x | 0.89
> Cn1c(=O)c2ncnnc2n(C)c1=O
    -2.3* | x
> Clc1ccc2nc(N3CCCC3)nc(-c3ccccc3)c2c1
    -0.15 | x
> Cc1cc(-c2nn(C)c(=O)c3ccccc23)cc(C)c1OC(=O)Nc1ccc(Cl)cc1
    -0.65 | -0.2
> O=C(CSc1nc2ncc(Cl)cc2[nH]1)c1ccc(S(=O)(=O)N2CCCC2)cc1
    0.05 | x
> O=C1CN(c2ncnc3sc(-c4ccccc4)cc23)CCN1
    0.65 | x
> COc1ccccc1C(=O)NCCCc1nc2ccccc2[nH]1
    -0.2 | 0.98
> CCOC(=O)C1C(=O)NC(N2CCN(CC)CC2)=NC1C(C)C (centres undefined)
    -0.45 | x
> CCOC(=O)c1c(C=O)oc2c(C)cc(OC(=O)c3cccc(Cl)c3)c(Br)c12
    x | -0.055
> CCC1(CC)CC(=O)C=NC1=O
    1.8 | -0.92
> CC(C)Oc1ccc(Br)cc1C1Nc2ccc3ccccc3c2C2=C1C(=O)CC(C)(C)C2 (centres undefined)
    x | 73
> NC(=S)NN=C1c2cc(OCCN3CCOCC3)ccc2-c2ccc(OCCN3CCOCC3)cc21
    x | -0.17
> COC(=O)CC1=C(C(=O)OC)C(c2cccnc2)C(C#N)=C(N)O1 (centres undefined)
    -1.1 | -0.03
> CN(Cc1ccccc1)C(=O)CCc1ccccc1
    0.9 | 0.15
> Cn1cnnc1SCC(=O)c1ccc2c(c1)NC(=O)CO2
    1.2 | x

Copied from the list:
Under AID504770, O=C(NC1CCCCC1O)c1cccc(Cl)c1 (centres undefined) is entered as -0.65
Under AID504770, O=C1CN(c2ncnc3sc(-c4ccccc4)cc23)CCN1 is entered as 0.65

Further records:
Screens in order: AID504770 | CapD inh
> COc1cc2c(C(=O)N3CCCCC3C)cn(C)c(=O)c2cc1OC (centres undefined)
    0.3 | -0.17
> CCOC(=O)N/N=C/c1ccc(OC)c(OC)c1
    x | -0.43
> CC1(C)OC(=O)C(=Cc2cccn2-c2ccc(C(F)(F)F)cc2)C(=O)O1
    -0.95 | -0.74
> Nc1nc(N)c2[nH]c(-c3ccccc3)nc2n1
    1.2 | x
> CC1(C)CC(=O)C=C(Nc2ccc(N)cc2)C1
    -0.1 | -2.8
> c1ccc(-n2ncnc2-c2ccc3c(c2)OCO3)cc1
    -0.45 | -0.47
> COC(=O)C1=CN(CCOC23CC4CC(CC(C4)C2)C3)C=C(C(=O)OC)C1c1cccc(F)c1
    -1.1 | 61
> O=C1NC2=C(C(=O)OC2)C(c2ccc(F)cc2)N1 (centres undefined)
    -0.9 | 0.47
> CCCc1nnc(SCC(=O)c2ccccc2)o1
    0.3 | x
> CC1(C)CC(=O)c2sc(NC(=O)/C=C\c3ccco3)nc2C1
    x | 2.3
> Cc1c(C(=O)Nc2ccccc2)cc(-c2ccccc2)n1CCCN1CCOCC1
    -0.6 | 10
> O=C(N[C@@H](Cc1ccc(O)cc1)C(=O)O)OCc1ccccc1
    -0.4 | 0.32
> O=C1/C(=C/c2ccc(-c3nn[nH]n3)cc2)C(c2ccccc2)Oc2ccccc21 (centres undefined)
    -0.65 | -2.5
> Cc1onc(-c2c(Cl)cccc2Cl)c1C(=O)NCC(=O)NN
    x | -0.51
> COC(=O)c1sc(-c2cccs2)cc1NC(=O)CSCC(=O)O
    -0.7 | 120
> COc1ccccc1N1CCN(C(C)C(=O)N2CC(C)CC(C)C2)CC1 (centres undefined)
    1 | x
> O=c1cc(Cn2nnc(-c3ccc(Cl)cc3)n2)nc2sccn12
    -1 | x
> Cc1ccc2c(c1)-c1c(ssc1=S)C(C)(C)N2C(=O)CSc1nccn1C
    x | -0.44
> O=S(=O)(c1ccc(-c2cc(C(F)(F)F)on2)s1)N1CCN(Cc2ccccc2)CC1
    -0.7 | 0.26
> CC(=O)C1=C(C)NC(SCc2cccc([N+](=O)[O-])c2)=C(C#N)C1CC(C)C (centres undefined)
    x | -0.21
> Nc1ccc(Cl)cc1C(=O)NCc1ccncc1
    x | 85
> O=C(Nc1ccccc1)C1CC(=O)N(Cc2ccc3c(c2)OCO3)C(=Nc2ccc(F)cc2)S1 (centres undefined)
    x | -0.17
> Cc1ccc(CSc2nc3c(c(Sc4cccc(C)c4)n2)CCCC3)cc1
    x | -0.35
> Cc1[nH][nH]c(=O)c1C1=NCCCCC1
    -0.35 | -0.72
> COCCNS(=O)(=O)c1c(C)nc2sccn2c1=O
    0.15 | 12
> CCCn1nnnc1SCC(=O)c1ccccc1
    1.6 | x
> CS(=O)(=O)c1cc([N+](=O)[O-])c(Sc2nc3ccccc3s2)c([N+](=O)[O-])c1
    x | -0.1
> Cc1c(Cl)cccc1Nc1nc(C(C)(C)C)cs1
    x | 0.095
> O=C(O)Cc1cn(-c2ccccc2)nc1-c1cccs1
    -0.3 | 4.8
> O=C(Nn1cnc2c(cnn2-c2ccccc2)c1=O)C1CCCC1
    0.6 | x
> CCCn1c2ccc(CC)cc2c2nc3ccccc3nc21
    -0.55 | -0.13
> CCC(=O)Nc1nonc1-c1nc2ccccc2[nH]1
    0.2 | 17
> Nc1nc(NCc2ccc(F)cc2)nn1-c1ccccc1
    -0.45 | -0.12
> CC(C)(C)c1ccc(COC(=O)NNC(=O)/C=C/c2cccc(C(F)(F)F)c2)cc1
    x | 2.4
> Cc1cc(C)c(-n2nnnc2SCC(=O)c2cc3ccccc3o2)c(C)c1
    -0.85 | -0.54
> Cc1ccc(N2C(=O)C(C)N=C2N2CCN(c3ccccc3)CC2)cc1 (centres undefined)
    -0.8 | -0.12
> CCO/C(C)=C1/SC(=S)NC1=O
    -1.1 | -3.5
> Clc1cccc(Cl)c1-c1nnc2ccc3ccccc3n12
    x | -0.29
> Cc1ccc(C(=O)OCC(=O)c2cccc(Cl)c2)s1
    -0.05 | -0.32
> CSc1ccccc1-c1nnc(SCc2ccc(Cl)c(Cl)c2)o1
    x | 2.8
> CCOC(=O)c1c(NC(=S)Nc2ccccc2OC)sc2c1CC(C)(C)OC2
    x | -0.29
> COC(=O)C1OC=C(C)C2CN3CCC4c5ccccc5NC4CC3CC21 (centres undefined)
    0.9 | 0.19
> O=c1c2ccccc2oc2nc3ccn(Cc4cccnc4)c(=O)c3cc12
    x | 0.39
> COC(=O)c1cccc(N2COc3ccc4c5c(c(=O)oc4c3C2)CCC5)c1
    -0.2 | 29
> CC(Oc1ccccc1)C(=O)NC1CCCC1 (centres undefined)
    -0.1 | -0.14
> COc1ccc(Oc2c(Cl)cnn(-c3ccc(Cl)c(Cl)c3)c2=O)cc1
    x | -0.74
> N#Cc1ccc(NC(=O)CCC(=O)c2cccs2)cc1
    1.3 | x
> Oc1c(C(c2ccc(Cl)cc2)N2CCOCC2)cc(Cl)c2cccnc12 (centres undefined)
    0.3 | -0.35
> CS(=O)(=O)c1ccc(COC(=O)c2ccccc2O)cc1
    0.35 | 0.37
> FC(F)(F)c1ccncc1-c1nnnn1-c1ccccc1Cl
    0 | -0.32
> c1ccc(NC2=NCCCCS2)cc1
    -0.35 | x
> CN(Cc1ccccc1)C(=O)c1cccc(-c2nnc(-c3ccccc3)o2)c1
    -0.45 | -0.53
> CC(C)(CC(=O)O)CC(=O)Nc1ccc(F)cc1
    -0.7 | -0.03
> O=C1Nc2cc(C(=O)N3CCN(c4ccccn4)CC3)ccc2S/C1=C\c1ccccc1
    2.9 | 0
> CCOc1ccc(N(CC)c2nc(-c3cc(OC)ccc3OC)no2)cc1
    0.4 | 0.85
> COc1ccc(/C=C2\CC/C(=C\c3ccc(OC)c(OC)c3)C2=O)cc1OC
    x | -0.86
> Cc1ccc(S(=O)(=O)N/N=C/c2ccc3c(c2)OCO3)cc1
    x | -0.83
> O=S(=O)(c1ccc(F)cc1)c1ccc(F)cc1
    0.95 | -0.31
> CC1CC1c1ccc(CCC(=O)Nc2ncc(Cc3cccc(Cl)c3)s2)o1 (centres undefined)
    0.05 | -0.6
> O=C(CN1CCCCC1)N1CCCC(c2nc3sc4c(c3c(=O)[nH]2)CCCC4)C1 (centres undefined)
    -0.3 | x

More compounds:
Screens in order: AID504770 | CapD inh
> N#Cc1nc(-c2cccs2)oc1N1CCCC1
    1.9 | 76
> COc1ccc(NS(=O)(=O)c2ccc3oc(SC/C(O)=C(\C#N)c4nc5ccccc5s4)nc3c2)cc1
    -0.85 | x
> Cc1c(C)n(C(=O)CSC(=S)N2CCOCC2)c2ccccc12
    3 | -0.68
> O=S(=O)(Cc1ccccc1)/C1=C(\N2CCOCC2)CCCCCC1
    2 | 1.2
> FC(F)(F)c1ccc(N2CCN(Cc3ccccc3)CC2)nc1
    -0.75 | -0.35
> COC(=O)c1[nH]c2ccccc2c1C(Nc1ccc(C(=O)O)cc1)c1ccccc1 (centres undefined)
    -0.85 | -1.1
> O=c1c(-c2ccccc2)coc2cc(OCc3ccccc3F)ccc12
    0.5 | 0.18
> COc1ccc(-c2c(C(F)(F)F)oc3cc(OC(=O)C(C)C)ccc3c2=O)cc1OC
    x | -1.2
> Cc1ccc(C)c(C(=O)COC(=O)c2n[nH]c3ccccc23)c1
    -1.1 | x
> CC1CCN(CC(=O)Nc2sccc2C#N)CC1
    -0.15 | x
> CCNC(=O)c1cc(S(=O)(=O)N2CCCCC2)ccc1C
    1.2 | -0.54
> CC(C)(C)c1cc2cc(NC(=O)C3CC3)ccc2[nH]1
    x | 0.58
> COc1ccccc1CNC(=O)/C=C/c1cc2c(cc1Br)OCO2
    x | 1.6
> CCc1cc(C(=O)c2ccc(OC)cc2)c(NC(=O)c2ccc(C(F)(F)F)cc2)s1
    -0.05 | 0.21
> CCn1nnc2cc(C(=O)NCC(c3ccccc3OC)N(C)C)ccc21 (centres undefined)
    -0.25 | x
> CC(C)C(NC(=O)Nc1ccc(Cl)cc1)C(C)C
    -1.6 | -0.85
> O=C(O)CON=C1C2CC3CC(C2)CC1C3
    0.95 | x
> CCOc1cc(N2CCOCC2)c(OCC)cc1NC(=O)Cc1c[nH]c2ccccc12
    1.4 | x
> OCCSc1nnc(Nc2ccccc2)s1
    -1.1 | -1.3
> CCOCCC(=O)N1CCC(C(=O)OCC)CC1
    0.7 | 0.055
> Cc1c(C(=O)Nc2ccc(F)cc2)oc2ccc3c(c12)C(=O)CC(C)(C)O3
    0 | 1.1
> O=C(CCCn1sc2ccccc2c1=O)NC1CCCc2ccccc21 (centres undefined)
    0.3 | -0.03

Compound activity deposited in PubChem BioAssay by ICCB-Longwood Screening Facility, Harvard Medical School.
